# NS1 inh – blocks influenza NS1 protein function; Potency, µM (highest dose often 46.1 µM), for the others: at the top dose activity, positive = more growth; AID 2326; S. cerevisiae slowed by influenza A NS1, growth recovery by OD600; 0.4% of 270,000 active; active means well fitted rising curve with a large enough effect; inconclusive means small, poorly fitted or top-dose-only effect; inactive means no such curve, though single readings can be large or run the other way; further: nearly all actives have a fitted effect of over 50% in size
#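 Recovery from NS1-induced slow growth read by OD600 in budding yeast switched to galactose assay medium (pH 6.0, -URA) at 1:100 dilution. Compound 23 nl per well; the matching strain lacking NS1 serves as control.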
# Lassa entry inh – blocks Lassa virus binding to or entry into cells | Lassa virus pseudotype entry inhibition, cell reporter; control for the full effect not named in the record | Potency, µM (doses to about 37.9 µM), for the others: at the highest dose activity change, negative = inhibition, hits mostly inhibitors | 1.2% of 300,000 active | AID 540256; active means well fitted inhibition curve with a large enough effect; inconclusive means small, poorly fitted or top-dose-only effect, or effect the other way; inactive means flat fitted curve, though single readings scatter; tested in HEK293 cells; further: on the % scale 0 is the no-effect control and ±100 the full control effect; nearly all actives have a fitted effect of over 50% in size; luciferase read-out
# SARS PLP yeast – blocks SARS-CoV papain-like protease in a yeast assay. Potency, µM (titrated, usually from 32.9 µM), inactives show at the highest dose activity, positive = growth rescue. 0.19% of 330,000 active. S. cerevisiae expressing SARS-CoV PLpro, growth rescue; control for the full effect not named in the record; active means well fitted rising curve with a large enough effect; inconclusive means small, poorly fitted or top-dose-only effect; inactive means no such curve, though single readings can be large or run the other way; further: 0% is about no effect; nearly all actives have a fitted effect of over 55% in size; growth read by luminescence after 48 h
# Cruzain inh noDet – inhibitors of Trypanosoma cruzi cruzain without detergent; AID 1476; Potency, µM, for inactives: max response, negative = inhibition, hits mostly inhibitors; 2.3% of 200,000 active; purified cruzain, Z-FR-AMC fluorescence, no detergent;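 further: plate controls were enzyme without inhibitor for no effect and buffer without enzyme for full effect; nearly all actives have a fitted effect of over 40% in size; top concentration of the series not given in the record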
# Target sequence (P25779 123-467 limits assumed): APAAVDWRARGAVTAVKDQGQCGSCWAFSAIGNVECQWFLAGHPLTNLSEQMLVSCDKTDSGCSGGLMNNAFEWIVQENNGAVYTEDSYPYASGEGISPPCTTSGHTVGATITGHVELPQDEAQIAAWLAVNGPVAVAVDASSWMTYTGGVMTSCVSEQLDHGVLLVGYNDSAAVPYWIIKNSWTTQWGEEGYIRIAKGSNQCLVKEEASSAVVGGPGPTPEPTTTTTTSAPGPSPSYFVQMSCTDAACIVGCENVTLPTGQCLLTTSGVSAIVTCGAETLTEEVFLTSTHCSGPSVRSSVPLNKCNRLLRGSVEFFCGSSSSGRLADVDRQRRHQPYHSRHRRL
#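 Detergent-free condition (0.00005% Triton X-100) in acetate buffer pH 5.5 with DTT. 1.5 nM enzyme and compound were pre-mixed 15 min, then 2 uM Z-FR-AMC substrate added; reaction progress from fluorescence change between first and third reads (60 s).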
# MARV entry inh – Marburg virus entry inhibition | Potency, µM (highest dose often 37.8 µM), without a hit: at the top dose activity change, negative = inhibition, usual class: inhibitors | Marburg virus pseudotyped entry inhibition, cell reporter; control for the full effect not named in the record; about a third of the inactives were read at about 46 µM | 1.8% of 300,000 active; active = well fitted inhibition curve with a large enough effect; inconclusive = small, poorly fitted or top-dose-only effect, or effect the other way; inactive = flat fitted curve, though single readings scatter; tested in HEK293 cells; about a fifth of its hits are not listed in these tables; further: on the % scale 0 is the no-effect control and ±100 the full control effect; luciferase read-out
# RE007 growth inh – less growth of the S. pombe RE007 Vpr strain | S. pombe RE007 Vpr strain, BacTiter-Glo ATP luminescence, 24 h; control for the full effect not named in the record | 0.21% of 360,000 active | AID 651644 | Potency, µM (series often up to 92.2 µM), without a hit: top-dose activity change, negative = less growth; active = well fitted falling curve with a large enough effect; inconclusive = small, poorly fitted or top-dose-only effect; inactive = no such curve, though single readings can be large or run the other way;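 further: on the % scale 0 is the no-effect control and ±100 the full control effect; nearly all actives have a fitted effect of over 50% in size; the assay follows cell death caused by Vpr and the record does not say whether a fall means rescue or toxicity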
#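 Fission yeast RE007 carrying one integrated HIV-1 vpr copy, seeded at OD 0.01 in PMG+AL medium with 23 nL pinned compound. Grown 24 h at 30 degrees; viability read by BacTiter-Glo luminescence after 5 min.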
# 2A StopGo – FMDV 2A StopGo reporter, luciferase signal. human cells with a luciferase reporter of 2A StopGo recoding; control for the full effect not named in the record. Potency, µM (top dose mostly 57.9 µM), for inactives: at the highest dose signal change, negative = less light. 1.2% of 410,000 active; active = well fitted falling curve with a large enough effect; inconclusive = small, poorly fitted or top-dose-only effect; inactive = no such curve, though single readings can be large or run the other way; tested in HEK293T cells; further: on the % scale 0 is the no-effect control and ±100 the full control effect; nearly all actives have a fitted effect of over 45% in size; luciferase light after 4 h
# Cruzain inh Det – blocks cruzain activity in presence of Triton detergent | 0.43% of 200,000 active | purified cruzain, Z-FR-AMC fluorescence, 0.01% Triton | P25779 | Potency, µM, for inactives: max response, negative = inhibition, most hits filed as inhibitors;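 further: plate controls were neutral wells for no effect and buffer without enzyme for full effect; nearly all actives have a fitted effect of over 40% in size; top concentration of the series not given in the record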
#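 Cruzain (1.5 nM) preincubated 15 min at RT with compound in 100 mM sodium acetate pH 5.5, 5 mM DTT, 0.01% Triton X-100. Reaction started with 2 uM Z-FR-AMC; AMC fluorescence (ex 360/em 450 nm) change over 60 s gave rate.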
# * marks the source's active call; other numbers are inactive results; ? = inconclusive; nt = not tested or not shown; [ ] = another dose, or the depositor's remark. Unless noted, the call rests on the fitted dose curve; in most records, active means well fitted curve in the direction sought with a large enough effect; inconclusive means small, poorly fitted or top-dose-only effect, or another doubt; inactive means no such curve, though single readings can be large; an effect the other way counts as inactive or inconclusive. Potency means the concentration at half of the fitted maximal effect. Hits appear at their usual frequency (roughly 4.7% active in at least one column).
SMILES,Lassa entry inh,MARV entry inh,Cruzain inh noDet,Cruzain inh Det,RE007 growth inh,NS1 inh,2A StopGo,SARS PLP yeast
Cc1cc(NS(=O)(=O)c2ccc(NC(=O)c3oc4ccccc4c3C)cc2)no1,7%,3%,-3%,-15%,-3%,-21%,6%,?
O=C(NCCCN1CCOCC1)C(=O)NCC1OCCCN1S(=O)(=O)c1cc(F)ccc1F (stereo unspecified),1%,-3%,nt,nt,7%,6%,14%,1%
COC(CNC(=O)C1CC(=O)N(CCc2ccc(C)cc2)C1)OC (stereo unspecified),nt,nt,nt,nt,2%,1%,-2%,0%
Oc1ccccc1-c1nc(/C=C/c2ccccc2Cl)no1,1%[46.1 µM],20%[46.1 µM],5%,-1.2%,nt,nt,-34%,nt
COc1ccc(-c2c(C)c3cc(OC(=O)N4CCOCC4)ccc3oc2=O)cc1OC,8%[46.1 µM],nt,13%,-3.8%,nt,nt,-21%,nt
CC(C)Oc1ccc2c(c1)OC(c1ccccc1)(C(F)(F)F)NC2=O (stereo unspecified),1%,18%,-11%,-4.2%,-6%,6%,11%,1%
COc1ccc(S(=O)(=O)n2nc(OC(=O)c3ccccc3)cc2N)cc1,-7%,0%,-16%,-15%,1%,-35%,20%,-4%
COc1cc(C(=O)NC(=S)N2CCN(C)CC2)cc(OC)c1OC,10%[46.1 µM],-2%[46.1 µM],nt,nt,3%,nt,-5%,12%
COc1ccc(Cl)cc1NC(=O)c1sc2nc3c(cc2c1N)CN(C)CC3,?,6%[46.1 µM],-11%,-2.0%,nt,nt,-18%,nt
CN1CCC/C1=C/C=C1\SC(=S)NC1=O,0%,38%,5%,-14%,0%,5%,44%[activator],-5%
COc1ccc(NC(=O)c2c(NCc3ccc(OC)c(OC)c3OC)sc3c2CCC3)c(OC)c1,6%[46.1 µM],nt,17%,-5.8%,nt,nt,?,nt
CCOc1ccc(NC(=O)c2cc3c(n(-c4ccc(OC)cc4)c2=O)CC(C)(C)CC3=O)cc1,?,?,11%,0.1%,nt,nt,-7%,nt
Cc1ccc(CNC(=O)C2CCN(S(=O)(=O)N3CCCC3)CC2)cc1,nt,nt,nt,nt,14%,-4%,-11%,-3%
CCOC(=O)c1c(NC(=O)c2ccn(CC)n2)sc2c1CCCC2,-17%,?,?,-11%,-20%,-55%,-5%,1%
CCC(C)NC(=O)CN(c1ccc(Cl)c(Cl)c1)S(C)(=O)=O (stereo unspecified),-2%,1%[46.1 µM],nt,nt,2%,10%,-12%,1%
O=C(Nc1nc(-c2ccccc2)cs1)c1cccs1,?,-25%,2%,-7.7%,?,-57%,-36%,-36%
Cc1c(C(=O)Nc2cccc(Cl)c2)oc2ccc(S(=O)(=O)N3CCCCCC3)cc12,4%[46.1 µM],nt,10%,1.3%,nt,nt,-27%,nt
CN(C)CCNC(=O)C(=O)NCC1OCCN1S(=O)(=O)c1ccc([N+](=O)[O-])cc1 (stereo unspecified),-4%,-6%,-5%,-4.2%,-19%,2%,-20%,5%
CN(CC(=O)Nc1cccc(S(=O)(=O)NC2=NCCCCC2)c1)Cc1ccc(C(C)(C)C)cc1,?,?,nt,nt,-12%,-1%,-17%,-9%
CCn1cc(CCC(=O)NC2CCCC2)c2ccccc21,-13%[46.1 µM],-16%[46.1 µM],nt,nt,-13%,-9%,-12%,0%
CCC(C)(C)n1nnnc1C(c1ccncc1)N1CCC(C)CC1 (stereo unspecified),7%,2%,10%,0.6%,-5%,-5%,-3%,1%
Cc1cccc(N2Cc3ccccc3C2=NC(=O)c2ccc(Cl)nc2)c1,20%,?,-29%,-0.7%,-7%,-3%,50%[activator],11%
CCCCOc1ccc(C(=O)Nc2ccc(CN3CCOCC3)cc2)cc1,nt,nt,nt,nt,-4%,-2%,?,-7%
O=C(COC(=O)c1ccccc1O)Nc1cccnc1Cl,-6%,-3%,-6%,-3.7%,-5%,-3%,8%,7%
C/C(=C\C(=O)c1ccccc1)NNC(=O)c1ccc(Cl)cc1,?,3%[46.1 µM],nt,nt,6%,-16%,2%,-1%
COc1cc(OC)cc(C(=O)N2CCN=C2SCc2cccnc2)c1,nt,nt,3%,-1.4%,-1%,-33%,0%,-7%
Cc1ccccc1S(=O)(=O)Cc1ccc(C(=O)NCCN(C)Cc2ccccc2)o1,30%[46.1 µM],?,nt,nt,-9%,20%,-12%,5%
N/C(=N\c1nc2ccccc2o1)NC(=O)/C=C/c1ccccc1,-16%[46.1 µM],?,nt,nt,4%,-1%,8%,-1%
O=C(CCc1nc(CN2CCN(S(=O)(=O)c3ccc(Br)cc3)CC2)no1)N1CCCCC1,-3%[46.1 µM],nt,27%,-0.6%,nt,nt,-19%,nt
O=C(NCCCN1CCCC1=O)C1CCN(S(=O)(=O)c2c(Cl)cccc2Cl)CC1,7%[46.1 µM],0%,nt,nt,8%,nt,7%,-10%
CCCCC1CCC(C(=O)N(CC(C)C)c2c(N)n(CCCC)c(=O)[nH]c2=O)CC1 (stereo unspecified),17%[46.1 µM],-6%,nt,nt,-11%,nt,-27%,-2%
O=C(NC1CCCC1)c1ccc2c(c1)N(Cc1ccccc1)C(=O)c1ccccc1S2,-18%[46.1 µM],nt,?,0.8%,nt,nt,-5%,nt
CCN(CC)CC(C)OC(=O)c1cc(OC)c(OC)c(OC)c1 (stereo unspecified),-1%,12%,-2%,3.9%,0%,-5%,4%,5%
COc1cccc(OC)c1C(=O)NC(=S)N1C[C@H]2C[C@H](C1)c1cccc(=O)n1C2,nt,nt,nt,nt,10%,7%,-12%,-3%
Cc1ccc(CCN2CC(C(=O)NCCC(C)C)CC2=O)cc1 (stereo unspecified),27%[46.1 µM],10%[46.1 µM],nt,nt,4%,3%,-16%,-1%
COc1ccc(-c2nn(C)c(=O)c3ccccc23)cc1NS(C)(=O)=O,-4%,?,5%,0.3%,3%,-2%,-6%,2%
CCOC(=O)c1c(-c2ccccc2)oc2ccc(OC(C)=O)cc12,?,-9%,12%,-27%,-1%,-8%,nt,-16%
Nc1nnc(SCCOc2cccc(Br)c2)s1,-28%,23%,3%,-7.1%,-8%,-59%,3%,-27%
CCn1c(SCC(=O)Nc2cc(C)on2)nnc1-c1ccc(C)cc1,-10%[46.1 µM],7%[46.1 µM],nt,nt,-8%,0%,-4%,1%
CCCCOc1ccc2c(c1)/C(=C(\C(Cl)=C(Cl)Cl)[N+](=O)[O-])N2,-7%[46.1 µM],-2%[46.1 µM],nt,nt,5%,nt,0%,-4%
COc1ccc(C(=O)Oc2c(OC)cc(C(=S)N3CCOCC3)cc2OC)cc1,nt,nt,nt,nt,0%,15%,2%,-4%
COc1cc(OC)c(OC)cc1CNCCNC(=O)c1ccco1,2%,-19%[46.1 µM],nt,nt,-11%,-17%,-12%,-1%
COc1ccc(C(=O)NC2CC2)cc1OC1CCN(Cc2ccccc2O)CC1,-6%,?,nt,nt,-7%,-5%,1%,-3%
Cc1oc(CSCC2CCCO2)cc1C(=O)O (stereo unspecified),0%,?,-8%,0.0%,-4%,6%,18%,-3%
CCOc1ccccc1OCCC(=O)OCC(=O)Nc1c(C)cc(C)cc1C,-12%,5%,nt,nt,1%,nt,-21%,-3%
O=C(CCNS(=O)(=O)c1ccc2c(c1)CCCC(=O)N2)NCc1ccccc1Cl,-6%[46.1 µM],nt,-1%,-2.9%,nt,nt,-15%,nt
Cn1c(C(=O)c2ccccc2[N+](=O)[O-])nc2ccccc21,-2%,2%,nt,nt,3%,5%,-4%,1%
CCc1ccccc1NC(=O)NC1CC2CCC(C1)N2Cc1ccco1 (stereo unspecified),-2%[46.1 µM],?,nt,nt,-21%,3%,6%,0%
COc1cccc(C(NC(C)=O)c2ccc3cccnc3c2O)c1 (stereo unspecified),?,?,nt,nt,-15%,-129%,-18%,3.2µM*
COc1cc(/C=C2\C(=N)N3N=C(C)SC3=NC2=O)cc(OC)c1OCCOc1ccccc1C,nt,nt,nt,nt,7%,3%,-23%,3%
Cc1ccc(S(=O)(=O)N2c3cc(C)ccc3OCC2C(C)(C)C)cc1 (stereo unspecified),-17%,?,0%,-2.7%,-14%,-36%,0%,-31%
Cc1cc2nccc(-c3ccncc3)n2n1,34%[46.1 µM],5%[46.1 µM],nt,nt,-14%,5%,-7%,2%
CN(Cc1ccc(O)cc1)C1CCCCC1,-5%,-4%,5%,1.6%,-10%,21%,-20%,-2%
Cc1ccc(OCc2nnc(SCC(=O)NCc3ccccc3)n2C)cc1,9%,7%,7%,-0.2%,1%,-6%,14%,-9%
CC(=O)Nc1ccc(NC(=O)c2cccc(C(=O)OC(C)C)n2)cc1,3%,-11%,16%,-2.4%,-8%,-7%,9%,5%
CCOC(=O)C1=C(C)N(C)C(=O)NC1c1c(C)nn(-c2ccccc2)c1C (stereo unspecified),-7%,?,-3%,1.5%,2%,-54%,-15%,2%
O=C(COC(=O)c1ccc(F)cc1Cl)NCc1ccco1,16%,4%[46.1 µM],nt,nt,-4%,nt,10%,-1%
CSc1nc(-c2ccccc2)cc(C(F)(F)F)c1C#N,-3%,18%,0%,-11%,-1%,3%,-15%,5%
NS(=O)(=O)c1ccc(NC(=S)NNC(=O)CCC(=O)Nc2ccccc2Cl)cc1,nt,nt,nt,nt,11%,3%,-15%,-4%
CC(=O)N1CCN(CC(=O)Nc2c(Cl)ccc(C)c2Cl)CC1,28%[46.1 µM],?,nt,nt,-13%,22%,-21%,4%
O=C(Nc1ccc(N2CCCC2)c(Cl)c1)c1ccc2c(c1)OCCO2,?,?,nt,nt,-8%,nt,-24%,nt
Cc1cc(=O)n2nc(N3CCCC(C(=O)N4CCc5ccccc54)C3)sc2n1 (stereo unspecified),-1%,9%,1%,1.1%,12%,5%,-5%,-4%

# High-throughput results from PubChem BioAssay.
